AID504770 = growth inhibitors of E. coli YBA685 in a screen for V. cholerae RctB (chromosome II replication) inhibitors | E. coli YBA685 rctB-dependent plasmid, OD600 growth, 3 h; active compounds read low | z-score (no concentration beside the values) | 130,000 tested, 0.27% active;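 active = z-score under -2 on both plates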;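 note: wells of about 30 µL received 100 nL stock; score is relative to mean and SD of the test wells; the first replicate is given; strong numbers were not always called active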
CapD inh = blocks the Bacillus anthracis CapD enzyme; z-score (concentration not given with the values); purified CapD enzyme, fluorescence intensity read-out; active compounds read low; some hits fall short of the stated cut; AID 492967; 140,000 tested, 0.23% active;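 active = z-score under -4 in either of two replicates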;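 note: stock transfer was 100 nL into about 40 µL; score is relative to mean and spread of the plate; one replicate is shown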
* = called active by the depositor; . = not tested or not shown.

SMILES	AID504770	CapD inh
N#CCc1nc2ccc(F)cc2c(=O)[nH]1	0.75	0.29
O=C(Cc1c(F)cccc1Cl)Nc1cc(C(=O)Nc2ccccc2F)ccc1N1CC2CC(C1)c1cccc(=O)n1C2 (configuration not stated)	.	0.595
CN(C)c1ccc(CN2CCN(S(=O)(=O)c3cc(Br)c(Cl)s3)CC2)cc1	.	-0.37
COc1ccc(N2CC(c3ccc(F)cc3)=CC2=O)cc1	0.5	-0.205
O=C(O)CNC(=O)/C=C/c1cccc(C(F)(F)F)c1	-0.3	-0.495
CSc1ncc(C(=O)O)c(-c2ccccc2)n1	-0.45	-2.04
CCN1C(=O)c2ccc(C(=O)c3ccc(C(=O)O)cc3)cc2C1=O	-0.5	-0.135
O=C(/C=C/Nc1ccc(F)cc1)c1cccc(OCc2c(F)cccc2Cl)c1	.	0.165
CCc1nn(CCCC(=O)N(C)Cc2ccccc2)c(=O)c2cc3occc3n12	-0.1	0.835
O=C(Nc1cccc(C(F)(F)F)c1)c1ccc(N2CC3CC(C2)c2cccc(=O)n2C3)c(NC(=O)c2ccc(F)cc2)c1 (configuration not stated)	.	0.02
N#CCCN(Cc1ccccc1)C(=O)Nc1ccc2c(c1)CCO2	-0.1	0.475
O=C(c1ccncc1)c1nccn1-c1ccccn1	-2.65	0.21
CCOc1ncccc1C(=O)N1CCSC1=NCCc1ccccc1	0	.
O=C(Nc1nnc(C2CC2)s1)c1sc2ccccc2c1Cl	-0.2	0.18
CCc1ccccc1N1C(=O)C2C3C=CC(CC3)C2C1=O (configuration not stated)	.	0.065
CC1(C)CN=C(N(C(=O)Nc2cccc(Cl)c2)C2CCCCC2)S1	-0.35	0.035
COC(=O)C1=C(C(=O)OC)SC(=C2C(=S)C(C)(C)N(C(=O)c3ccc(Cl)cc3Cl)c3ccccc32)S1	.	-0.29
COc1ccnc(N)c1C#N	0.45	3.26
COc1ccc(-c2noc(CSc3nnc(C)n3-c3ccc(Cl)cc3)n2)cc1	-0.8	-0.69
CN(c1ccc(Br)cc1)S(=O)(=O)c1ccc2[nH]c(=O)c(=O)[nH]c2c1	0.15	7.57

Continued, starting with the last 4 of the part before.
SMILES	AID504770	CapD inh
COC(=O)C1=C(C(=O)OC)SC(=C2C(=S)C(C)(C)N(C(=O)c3ccc(Cl)cc3Cl)c3ccccc32)S1	.	-0.29
COc1ccnc(N)c1C#N	0.45	3.26
COc1ccc(-c2noc(CSc3nnc(C)n3-c3ccc(Cl)cc3)n2)cc1	-0.8	-0.69
CN(c1ccc(Br)cc1)S(=O)(=O)c1ccc2[nH]c(=O)c(=O)[nH]c2c1	0.15	7.57
COc1ccc(C2(O)CN(c3ccccc3C)C3=[N+]2CCCC3)cc1 (configuration not stated)	.	0.925
CCOc1cc(C2C(C(=O)OC)=CN(Cc3ccc(OC)c(OC)c3)C=C2C(=O)OC)cc(Br)c1O	.	29.4
O=C1/C(=C\c2ccc3c(c2)OCO3)C2=C(C(=O)N(c3ccccc3)C2c2ccc(Br)cc2)N1c1ccccc1 (configuration not stated)	.	-0.265
CCOC(=O)c1sc2nc(CC(=O)OC)nc(Nc3ccc(F)cc3F)c2c1C	.	0.895
Cc1cccn2c(=O)c(/C=C3\SC(=S)N(Cc4ccccc4)C3=O)c(N3CCOCC3)nc12	.	0.005
COC(=O)C1C(C)=CC(=O)CC1CC(C)C (configuration not stated)	-0.45	-0.075
CCc1ccc(C2C(C#N)=C(N)Oc3cc4c(cc32)OCO4)cc1 (configuration not stated)	0.8	0.875
O=C1S/C(=C/c2ccccc2F)C(=O)N1CNc1ccccc1	-0.8	-1.48
COc1ccccc1-c1c(C)nn2c(NCC(OC)OC)cc(C)nc12	-0.3	1.23
CSc1nc(SCC(=O)C(C)C)nc(N)c1C#N	-0.75	-0.145
COc1cc(/C=C\C(=O)Nc2c3c(nn2-c2ccc(C)cc2C)CS(=O)(=O)C3)cc(OC)c1OC	.	12.4
Cn1cc(/C=N/NC(=O)c2ccncc2)c2ccccc21	.	-0.725
Cn1c(SCc2c(F)cccc2Cl)nc(C(F)(F)F)cc1=O	.	-0.69
COC(=O)c1ccccc1NC(=O)c1onc(C)c1Cl	-2	2.9
CCOC(=O)N1CCN(C(=O)CN(c2ccc(Cl)cc2C)S(=O)(=O)c2ccc(C)cc2)CC1	.	-0.69
COc1cccc(C(c2c(O)[nH]c(=O)[nH]c2=O)N2CCCC(C)C2)c1OC (configuration not stated)	0	-0.03
O=C(O)CSc1nc(O)cc(=O)[nH]1	-0.35	0.9
CC(=O)Nc1c(C)cc(C)[nH]c1=O	1.35	-0.3
CCSCC(=O)N1CCN(c2nnc(-c3ccccc3)c3ccccc23)CC1	-0.2	0.31
Cc1nn(C)c(C)c1/C=C/C(=O)O	0	.
OCCN(CCO)CC(O)Cn1c2ccc(Br)cc2c2cc(Br)ccc21 (configuration not stated)	0.25	.
CCOC(=O)N/N=C/c1ccc2c(c1)OCO2	.	0.525
O=C(COC(=O)Cn1cnc2ccccc21)NCC1CCCO1 (configuration not stated)	-1.15	.
CN(C)c1nc(N(C)C)nc(N2CC(=O)N(c3ccc(Cl)cc3)C2=N)n1	.	-0.08
COc1cccc(OC)c1C(=O)NC(C)(C)CC(C)(C)C	-0.2	-0.175
[O-][N+]12CC[N+]([O-])(CC1)c1ccccc12	0.6	0.71
CNC(=O)NC(=O)CSc1ccc(NC(C)=O)cc1	0.7	.
CCOC(=O)C1CCN(c2ncnc3c2cnn3C)CC1	-0.45	-0.975
COC(=O)Cn1cc(C=C2C(=O)N(C)C(=O)N(C)C2=O)c2ccccc21	0.3	.
CCN=C1S/C(=C/c2cn(CC(=O)Nc3ccccc3)c3ccccc23)C(=O)N1CC	0.3	0.26
O=C(Nc1ccccc1C(=O)O)OCC1c2ccccc2-c2ccccc21	-0.8	1.8
Cc1cc2nnc(C(=O)/C=C/N(C)C)c(C)n2n1	-0.75	-3.26
CN(Cc1ccccc1)C(=O)c1noc2c1COc1ccccc1-2	1.15	-1
Cc1sc2ncnc(NCc3ccccn3)c2c1C	0.15	.
CNCC12CC3CC(CC(C3)C1)C2	0.5	.
COc1ccc(N2C(N)=C(C#N)C(c3cccc([N+](=O)[O-])c3)C3=C2CC(C)(C)CC3=O)cc1 (configuration not stated)	.	0.08
CCN(C(=O)Cn1ncc2c1-c1ccccc1OC2)c1ccccc1	-0.75	-0.5
CC1(CCc2ccccc2)NC(=O)N(NC(=O)COc2ccc(C#N)cc2)C1=O (configuration not stated)	1.55	.
CCOc1ccc(C(=O)CCC(=O)N2CCNC(=O)C2)cc1	-0.4	.
CCOc1ccc(CCNC(=O)C2=CCN(S(=O)(=O)c3ccc(F)cc3)CC2)cc1OCC	-0.5	-0.24
CC(=O)OC(OC(C)=O)c1ccc([N+](=O)[O-])o1	.	-1.86
COc1cc(-c2[nH]nc3c2C(c2cccs2)C(C#N)=C(N)O3)cc(OC)c1OC (configuration not stated)	.	-0.71
CC1NC(=O)N(C(C)C)C2NC(=O)N(C(C)C)C(c3ccccc3)C12 (configuration not stated)	.	11.8
FC(F)(F)c1cccc(Cn2c3ccccc3c3nc4ccccc4nc32)c1	.	0.82
c1ccc(N2CCN(c3ccc4nnnn4n3)CC2)cc1	.	-0.28
O=c1c2ccccc2oc2ncccc12	.	1.38
COc1ccccc1CNC(=O)COC(=O)c1cccc2ccccc12	1.55	0.08
ONc1nc2ccccc2nc1NO	-0.05	-1.11
S=c1[nH]nc(C23CC4CC(CC(C4)C2)C3)o1	1.05	.
CCOC(=O)C1=C(c2ccccc2)Nc2nnnn2C1c1ccc(Br)cc1 (configuration not stated)	0.8	-0.76
Nc1cc(C(F)(F)F)ccc1NCc1ccccc1	1.3	3.45
Cc1ccc(-n2ncc3c(=O)n(C/C=C/c4ccccc4)cnc32)cc1C	-0.2	0.41
O=C(CC1(O)C(=O)N(CCc2ccccc2)c2ccc(Br)cc21)c1ccco1 (configuration not stated)	-0.3	-0.24
Cc1cc(NC(=O)COC(=O)c2ccccn2)ccc1Cl	-0.7	-0.08
COc1ccccc1N(CCOC(=O)c1ccc([N+](=O)[O-])c(C)c1)C1=NS(=O)(=O)c2ccccc21	.	-0.475
Cc1ccc(C)c(N2CCN(C3CCCCCCC3)CC2)c1	-0.25	0.235
CCOC(=O)CC1C(=O)NCCN1C(=O)c1ccccc1 (configuration not stated)	-0.55	-0.49
O=C(CNc1ccccc1)Nc1ccccc1	-0.75	0.28
CCC(=O)Nc1nc(-c2ccccn2)cs1	-1.05	.
CCOC(=O)c1c(CSc2ccc(CC)cc2)oc2ccc(O)c(CN(C)C)c12	.	-0.62
Next part:
SMILES	AID504770	CapD inh
COc1ccc(-c2cc(C(=O)Nc3ccc(S(N)(=O)=O)cc3)c3ccccc3n2)cc1	.	5.55
COc1cccc(Nc2cc(C)nc3ccccc23)c1	1.8	.
CC(=O)Oc1ccc(-c2ccc(C(=O)O)cc2)cc1	-0.75	-3.21
COc1ccc(Cl)cc1NC(=O)C(OC)c1ccccc1 (configuration not stated)	-0.35	.
CC(C)Cn1ncc(=O)n(CC(C)C)c1=O	0.3	0.365
CSc1cc(-c2ccc(F)cc2)nn1S(=O)(=O)c1ccc(C)cc1	0.4	0.085
FC(F)(F)c1nc(NCc2ccco2)nc2c1CCCCC2	0.75	7.7
COc1ccc(NC(=O)/C(=C/c2cccc([N+](=O)[O-])c2)NC(=O)c2ccccc2Br)cc1	.	-0.465
O=C(C[n+]1ccccc1)c1ccc([N+](=O)[O-])cc1	.	-0.865
Cc1ccccc1C(=O)Nc1ccc(-c2ccc3nncn3n2)cc1	0	.
CC(C)(C)NC(=O)c1ccc2c(c1)C(=O)N(Cc1ccco1)C2=O	-0.25	0.37
COc1cc(OC)nc(C2CCN(C(=O)c3ccccc3NC(=O)/C=C/c3ccccc3)CC2)n1	.	0.015
COc1ccc(-n2c(O)c(C=NCC(C)(C)N3CCOCC3)c3ccccc3c2=O)cc1OC	-0.1	.
CCN1C(=O)c2ccccc2S(=O)c2ccc(C(=O)NCCC3=CCCCC3)cc21 (configuration not stated)	-0.1	-1.17
COc1cc(C2C(C#N)=C(N)OC3=C2C(=O)CC(c2ccco2)C3)cc(OC)c1O (configuration not stated)	.	-0.555
Cn1c(SCc2ccccc2)nc2ccccc21	0.75	0.315
Cn1cccc1C(=O)OCC(=O)c1ccc(Br)cc1	1.45	.
O=C(NCCc1ccccc1)C1CC(=O)N(C2CCCC2)C1 (configuration not stated)	1.2	0.645
O=S(=O)(Cc1ccccc1)N1CCCc2ccccc21	-0.95	-0.585
COc1ccccc1N=Nc1[nH]c2ccc(C)cc2c1O	0.4	-0.38

A draw from above in order of length of the SMILES, low to high.
SMILES	AID504770	CapD inh
CC(C)Cn1ncc(=O)n(CC(C)C)c1=O	0.3	0.365
COc1ccc(Cl)cc1NC(=O)C(OC)c1ccccc1 (configuration not stated)	-0.35	.
O=C(NCCc1ccccc1)C1CC(=O)N(C2CCCC2)C1 (configuration not stated)	1.2	0.645
Cc1ccccc1C(=O)Nc1ccc(-c2ccc3nncn3n2)cc1	0	.
CCN1C(=O)c2ccccc2S(=O)c2ccc(C(=O)NCCC3=CCCCC3)cc21 (configuration not stated)	-0.1	-1.17

Next compounds:
SMILES	AID504770	CapD inh
O=C(CSc1nc(-c2ccccc2)ns1)N1CCN(c2ccccc2)CC1	-0.5	0.615
c1nnc(NC2=NCCCCC2)s1	0.05	.
O=S(=O)(c1cc(C(F)(F)F)cc(C(F)(F)F)c1)N1CCN(Cc2ccnc3ccccc23)CC1	.	-0.245
COc1ccc(C(=O)Nc2ccc(N3CCCCC3)cc2)cc1	-0.85	.
COc1ccc(CCN(C)C(=O)c2ccccc2CC(=O)O)cc1OC	.	1.43
O=C(Nc1ccccc1C(F)(F)F)c1cccs1	-1.3	0.04
COc1ccc2oc(-c3ccco3)cc(=O)c2c1	-0.05	30
Cc1cc(C)c2cc3c(ccn3C3OC[C@H](O)[C@H](O)[C@H]3O)cc2n1 (some centres not stated)	0.2	0.7
O=C(CSc1nn2cnnc2s1)N1CCCC1	0.95	.
CCOC(=O)c1sc(Nc2ccccc2C(F)(F)F)c(C(=O)OCC)c1N	-0.4	-0.375
CCOc1ccc(NC2=NC3CS(=O)(=O)CC3S2)cc1 (configuration not stated)	0.25	-0.28
Cn1c(-c2ccc(Br)cc2)cnc1SCC(=O)N1CCNC1=O	-0.9	.
CCC(=O)Nc1nc2c(C)c(C)ccc2s1	-0.95	-0.185
CCN1CCCC1CNC(=O)c1ccccc1Cl (configuration not stated)	-1.05	-0.125
FC(F)(F)c1ccnc(Oc2ccc(I)cc2)n1	0.15	-0.305
Cc1cc(C)n(C(=O)C2COc3ccccc3O2)n1 (configuration not stated)	-0.3	0.235
COc1ccc(N2C(=O)NC(=O)/C(=C\c3cc(Br)c(OC)cc3OC)C2=O)cc1	.	0.49
COC(=O)c1ccc(CSc2nnc(-c3ccccc3)n2-c2ccccc2)o1	-1.4	.
CC1=NN(C(=O)c2cccnc2)C(C)(O)C1 (configuration not stated)	-0.8	0.015
CNc1ccccc1C(=O)NCCc1ccc(OC)c(OC)c1	.	84.3
CCCCN1C(=O)SC(Nc2ccc(F)cc2)C1=O (configuration not stated)	-0.4	.
COc1cccc(/C=C/c2nc3ccccc3c(=O)n2-c2ccccc2)c1	.	-0.395

Complete entries as entered above. Order of screens: AID504770 | CapD inh
`O=S(=O)(c1cc(C(F)(F)F)cc(C(F)(F)F)c1)N1CCN(Cc2ccnc3ccccc23)CC1` across the screens: . | -0.245
`COC(=O)c1ccc(CSc2nnc(-c3ccccc3)n2-c2ccccc2)o1` across the screens: -1.4 | .
`Cc1cc(C)n(C(=O)C2COc3ccccc3O2)n1` (configuration not stated) across the screens: -0.3 | 0.235
`O=C(CSc1nn2cnnc2s1)N1CCCC1` across the screens: 0.95 | .
`CCOC(=O)c1sc(Nc2ccccc2C(F)(F)F)c(C(=O)OCC)c1N` across the screens: -0.4 | -0.375

High-throughput results: PubChem BioAssay, ICCB-Longwood Screening Facility, Harvard Medical School
